Source: PubChem BioAssay
WNV NS2B-NS3 inh = WNV NS2B-NS3 proteinase inhibition. z-score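 (tested at a level between 10 and 100 µM)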. P06935. WNV NS2B-NS3 protease, fluorogenic substrate Ex360/Em465; hits give low values. AID 577. 0.18% of 65,000 active;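 active means z-score at -3 or under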;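 further: score is relative to mean and spread of the compound wells of a plate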
Target sequence (P06935 1371-1501 limits assumed): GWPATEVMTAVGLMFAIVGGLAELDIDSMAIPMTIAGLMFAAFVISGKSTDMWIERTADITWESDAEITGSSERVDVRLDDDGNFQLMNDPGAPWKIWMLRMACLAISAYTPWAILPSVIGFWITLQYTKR
Target sequence (P06935 1502-1679 limits assumed): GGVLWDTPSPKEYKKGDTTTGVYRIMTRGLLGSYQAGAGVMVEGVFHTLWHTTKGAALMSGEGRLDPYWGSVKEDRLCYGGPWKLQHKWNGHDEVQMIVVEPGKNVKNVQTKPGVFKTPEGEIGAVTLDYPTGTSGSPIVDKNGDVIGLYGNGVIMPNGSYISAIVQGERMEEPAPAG
MT1-MMP promoter = inhibitors of MT1-MMP promoter transcription, cell-based, luciferase reporter, luminescence (AID 618); MT1-MMP promoter luciferase reporter cells, luminescence; 0.62% of 87,000 active; calls from a first round at 10 µM; hits with a dose series show EC50 in µM;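 active means over half of the reporter light lost at 10 µM or EC50 under 50 µM; inactive means the rest and hits that failed the dose series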;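 further: actives suppress MT1-MMP promoter-driven transcription so potencies describe inhibitors; HT1080 fibrosarcoma cells; overnight exposure; toxic or luciferase-blocking compounds were not removed from the actives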
Hsc70 ATP site = Hsc70 inhibitors, probe displacement, primary screen, biochemical, fluorescence polarization (AID 568). Hsc70 fluorescence polarization, probe displacement; higher % means a stronger effect; strong numbers were not always called active. one-dose displacement, % at 20 µM; IC50 in µM for titrated hits. 83,000 tested, under 10 active;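 active means displacement above 50% without optical interference and an IC50 on retest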;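 further: ATPase domain with a fluorescein-tagged ATP probe; 0% = vehicle and 100% = excess ADP; read after one hour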
Starred values were filed as active, the others as inactive; i = inactive; . = not tested or not shown. Only part of the results is shown (hit frequency here may not be typical).

The line under a structure holds: WNV NS2B-NS3 inh, MT1-MMP promoter, Hsc70 ATP site
Cc1ccc(-c2csc(NC(=O)CSC3=NCCS3)n2)cc1
 : ., i, 1.7%
Cc1cc(-c2ccccc2)nc(=O)[nH]1
 : -0.88, i, -6.3%
CCOC(=O)N1CCN(C(=O)c2cccc(NC(=O)c3ccco3)c2)CC1
 : -0.85, i, -2.2%
O=C(Nc1nn(Cc2ccccc2F)cc1Br)c1cccs1
 : 2, i, -2.5%
O=C(c1cnn2c1NC(c1ccc(Br)cc1)CC2C(F)(F)F)N1CCN2CCCC2C1 (stereo unspecified)
 : -1, i, 4.9%
O=C(COc1ccc(Cl)cc1Cl)NC(=O)N1CCCCC1
 : -1.6, i, 1.2%
COc1ccccc1N(CC(=O)NC1CCCC1)C(=O)CCC(=O)Nc1cc(C)on1
 : -0.47, i, -5.6%
CCOC(=O)C(NC(=O)c1ccc(OC)cc1)(OCC1(CC)COC1)C(F)(F)F (stereo unspecified)
 : 0.49, i, 1.8%
O=C(Nc1ccccc1)N1CCCN(Cc2ccccc2F)C1
 : -0.3, i, -1.8%
O=C(CCN1C(=O)C2CC=C(Cl)CC2C1=O)NCc1ccccc1 (stereo unspecified)
 : ., i, 21%
CCCS(=O)(=O)N1CCN(Cc2ccc(OCc3ccccc3)c(OC)c2)CC1
 : 1.1, i, -2.7%
CCCc1n[nH]c2c1/C(=N\O)CCC2
 : ., i, -1.4%
COc1ccc(NC(=O)c2cc(-c3cc(C)ccc3O)n[nH]2)cc1Cl
 : -0.06, i, 0.3%
Cn1c(=O)n(Cc2ccc(F)cc2)c(=O)c2c1nc1n2CCCN1Cc1ccccc1
 : 0.29, i, -0.6%
Cc1csc2ncc(C(=O)NCc3ccco3)c(=O)n12
 : 0.2, i, -9.9%
CN(C)S(=O)(=O)c1ccc2oc(SCC(=O)NCC(F)(F)F)nc2c1
 : 0.12, i, -1.9%
Cc1cn(C(=O)C(C)N2C(=O)c3ccccc3C2=O)c(C)n1 (stereo unspecified)
 : ., i, -3.5%
Cc1c(NS(=O)(=O)c2cccc(C(=O)NCc3ccncc3)c2)c(=O)n(-c2ccccc2)n1C
 : ., i, 6.5%
CCSc1nc2ccccc2n1CCC(=O)O
 : 0.18, i, -0.8%
CCOc1ccccc1CNn1nnnc1N
 : ., i, 1.2%

Full records as entered above. Screens in order: WNV NS2B-NS3 inh	MT1-MMP promoter	Hsc70 ATP site
Profile of `Cn1c(=O)n(Cc2ccc(F)cc2)c(=O)c2c1nc1n2CCCN1Cc1ccccc1` → 0.29	i	-0.6%
Profile of `Cc1cn(C(=O)C(C)N2C(=O)c3ccccc3C2=O)c(C)n1` (stereo unspecified) → .	i	-3.5%

Reprinted at random: five entries already listed, in no set order.
The line under a structure holds: WNV NS2B-NS3 inh, MT1-MMP promoter, Hsc70 ATP site
CN(C)S(=O)(=O)c1ccc2oc(SCC(=O)NCC(F)(F)F)nc2c1
 : 0.12, i, -1.9%
COc1ccc(NC(=O)c2cc(-c3cc(C)ccc3O)n[nH]2)cc1Cl
 : -0.06, i, 0.3%
CCOc1ccccc1CNn1nnnc1N
 : ., i, 1.2%
CCSc1nc2ccccc2n1CCC(=O)O
 : 0.18, i, -0.8%
Cc1csc2ncc(C(=O)NCc3ccco3)c(=O)n12
 : 0.2, i, -9.9%

Going on with the list.
The line under a structure holds: WNV NS2B-NS3 inh, MT1-MMP promoter, Hsc70 ATP site
Cc1cc(C)n(C(=O)CCNC(=O)c2ccccc2Cl)n1
 : ., i, 1.3%
CC(=O)c1cn(CC(=O)Nc2ccc(C)cc2C)c2ccccc12
 : ., i, 1.7%
C=CCOC(=O)C1=C(C)NC(=O)NC1C1CC=CCC1 (stereo unspecified)
 : 0.56, i, -0.4%
COc1ccc(-c2csc(N3CCN(C(=O)c4ccco4)CC3)n2)cc1
 : -0.08, i, -0.5%
Cc1cccc(-c2noc(CN(C(=O)c3ccc(Br)o3)C(C)C)n2)c1
 : -0.19, i, 1.8%
O=C(NCc1ccncc1)C12CC3CC(CC(C3)C1)C2
 : 1.7, i, 2.0%
COc1ccc(NC(=O)C2CCN(S(=O)(=O)c3ccc(OC)c(OC)c3)CC2)cc1
 : ., i, 0.0%
CCOC(=O)N1CCN(C(=O)C(C)(C)Oc2ccc(Cl)cc2)CC1
 : 2, i, 2.3%
Cc1ccc2c(c1)N(C(=O)NC1CCCCC1)C(C)(C)CC2C (stereo unspecified)
 : ., i, -2.1%
Cc1cc(NCCCN2CCOCC2)n2ncc(-c3ccccc3)c2n1
 : 0.23, i, 4.1%
Cc1c(NC(=O)C(C)OC(=O)CC2Sc3ccccc3NC2=O)c(=O)n(-c2ccccc2)n1C (stereo unspecified)
 : -0.28, i, 8.2%
O=C1OCCC1Sc1nc2ccccc2[nH]1 (stereo unspecified)
 : 1.5, i, 4.1%
COC(=O)C1C2C=CC3(CN(CC4CCCO4)C(=O)C13)O2 (stereo unspecified)
 : -0.18, i, 8.7%
C#CCn1c(=NC(=O)c2cccs2)sc2cccc(OC)c21
 : 0.05, i, 2.8%
CC1(C)C(=O)Nc2ccccc2N1C(=O)COC(=O)c1ccc(Cl)c(S(=O)(=O)NCc2ccccc2)c1
 : ., i, 5.3%
COc1ccc(-c2nnn(CC(=O)N(CC(=O)NCCC(C)C)Cc3cccs3)n2)cc1OC
 : -0.58, i, 0.7%
COc1cccc(-c2cc(C(=O)Nn3cnnc3)c3ccccc3n2)c1
 : -0.86, i, -1.7%
O=C(O)C1CCN(S(=O)(=O)c2cccnc2)CC1
 : -0.51, i, 1.8%
O=S(=O)(Nc1cccnc1)c1ccc(Cl)cc1
 : ., i, 4.5%
O=C(O)c1cc2ccc3ccccc3c2[nH]1
 : 0.86, i, -4.8%
Fc1cccc2sc(Nc3nnc(-c4ccccc4)o3)nc12
 : 1.9, i, -7.4%
CC(=O)Nc1nc(CC(C)C)cc(-c2ccco2)c1C#N
 : -0.03, i, 2.0%
COC(=O)Cn1cc(C(=O)OC)c2ccccc21
 : -1.2, i, 5.8%
O=C(CC1Oc2ccccc2NC1=O)NCc1ccc(Cl)cc1 (stereo unspecified)
 : -0.71, i, 3.3%
Cc1nn(Cc2ccc(C(=O)Nc3nc4c(C)cccc4s3)o2)c(C)c1Br
 : ., i, 2.2%
O=c1nc2n(c3c4c(sc13)CCC4)CCC2
 : -0.05, i, -1.6%
Nc1nc2c3ccccc3nc(C3CC3)n2n1
 : -0.61, i, -2.0%
COC(=O)[C@@H](NC(=O)Nc1ccccc1F)C(C)C
 : -1.7, i, 3.8%
Cc1ccc(C)c(S(=O)(=O)NC(CC(C)C)C(=O)O)c1 (stereo unspecified)
 : 2, i, 1.1%
Cn1ccnc1SCC(=O)N(C1CCCCC1)C1CCCCC1
 : -0.83, i, -7.2%
COc1ccccc1-n1nnnc1S(=O)(=O)Cc1ccc(Cl)cc1
 : 1.1, i, 0.7%
O=C(Cn1cnc2sc(-c3ccccc3)cc2c1=O)NCc1ccco1
 : -0.73, i, -6.8%
CCOc1cc(C)c(Cl)cc1S(=O)(=O)n1nnc2ccccc21
 : -0.44, i, 8.3%
CC1CCN(C(=O)C2(NC(=O)Nc3cccc(F)c3)CCCCC2)CC1
 : ., i, 2.3%
COc1ccc(NC(=O)CNc2cccc(C#N)c2)cc1Cl
 : 0.02, i, 4.6%
CC(C)(C)NC(=O)c1sccc1C(=O)O
 : -0.25, i, -4.0%
CCOc1ccc(OCc2ccc(C(=O)NCc3cccnc3)o2)cc1
 : ., i, -1.1%
O=C(CCCSc1nc2ccccc2[nH]1)NC1=NCCS1
 : -0.86, i, 5.9%
CC(Sc1nc2ccccc2c(=O)n1Cc1ccco1)C(=O)c1ccccc1 (stereo unspecified)
 : -0.3, i, 4.1%
CCCCCc1c(C)nc(N2CCOCC2)[nH]c1=O
 : -0.87, i, -5.6%
Cc1cccc2cc(COC(=O)c3ccccc3)c(=O)[nH]c12
 : 0.15, i, -1.4%
CCn1nc(NC(=O)c2ccccn2)c2cc3cc(C)ccc3nc21
 : -0.93, i, -8.7%
CCn1c(CNc2ccc(C)cc2C)nnc1SCC(=O)N1CCCc2ccccc21
 : 0.24, i, 0.0%
COC(=O)c1scc(C)c1N/N=C(\C)c1cc(F)c(Cl)cc1F
 : ., i, 1.3%
COc1nc(C)nc2c1sc1nc3c(cc12)COC(C)(C)C3
 : ., i, -0.2%
CCC(c1nnnn1CCOC)N(Cc1cc2cc(C)c(C)cc2[nH]c1=O)CC1CCCO1 (stereo unspecified)
 : ., i, -4.4%
COc1cc(NS(=O)(=O)c2ccc(Br)s2)cc(OC)c1
 : -0.01, i, -17%
CCc1ccccc1NS(=O)(=O)c1ccc2[nH]cc(C(=O)NC3CCCC3)c(=O)c2c1
 : ., i, -20%
CCOc1ccccc1N1CCN(C(=O)c2cc3c(s2)CCC3)CC1
 : -0.3, i, 0.4%
O=C(OCCN1C(=O)c2ccccc2C1=O)c1cc(=O)[nH]c2ccccc12
 : 1.2, i, -1.4%

The list goes on:
The line under a structure holds: WNV NS2B-NS3 inh, MT1-MMP promoter, Hsc70 ATP site
COc1ccc(-c2nc3ccccc3n2CCC(C)C)cc1OC
 : ., i, 0.3%
CCCc1[nH]nc2c1C1(CCN(C(=O)OCc3ccccc3)CC1)C(C#N)=C(N)O2
 : -0.95, i, -1.2%
Cc1cc(C)n(-c2nc3ccccc3c(=O)n2OCC(N)=O)n1
 : ., i, 2.7%
Cc1cc(C)c(C#N)c(SC(F)F)n1
 : ., i, -2.2%
CCC1CCCCN1C(=O)c1cc(-c2ccc(Cl)c(Cl)c2)on1 (stereo unspecified)
 : 1.1, i, -4.0%
CCOc1ccc(NS(=O)(=O)c2ccc(N)cc2)cc1
 : ., i, 3.1%
COc1ccc(Cc2nnc(NC(=O)c3ccco3)s2)cc1OC
 : -0.48, i, 4.5%
Cc1nnc(SCC(=O)Nc2cccc(C(F)(F)F)c2)[nH]c1=O
 : 0.44, i, 0.3%
COC(=O)C1=C(C)N2C(=O)CSC2=NC1c1ccc2c(c1)OCO2 (stereo unspecified)
 : 0.33, i, -2.7%
Cc1ccc2[nH]c(=O)c(COC(=O)C3CCCO3)cc2c1 (stereo unspecified)
 : -0.9, i, -1.0%
CCN(CC)C(=O)CSc1nnc(-c2cc(OC)cc(OC)c2)o1
 : -0.51, i, 2.2%
CC(=O)CC1(O)C(=O)N(CN2CCN(c3ccccc3)CC2)c2ccccc21 (stereo unspecified)
 : 1.1, i, 1.3%
COc1cccc(-c2nc(NCC3CCCO3)c3ccccc3n2)c1O (stereo unspecified)
 : -0.13, i, -3.9%
O=C(COC(=O)C1CCC1)Nc1ccc(OC(F)F)cc1
 : -0.7, i, -3.4%
CCN(c1ccccc1)S(=O)(=O)c1ccc(F)c(C(=O)O)c1
 : 0.48, i, 1.4%
Cc1nc(NS(=O)(=O)c2ccc(Br)cc2)c2c3c(sc2n1)CCC3
 : ., i, -2.7%
COc1ccc(S(=O)(=O)NCCSc2ccc(C)cc2)cc1OC
 : -0.39, i, -0.8%
NC(=O)C1CCN(CC(=O)NCc2ccccc2)CC1
 : ., i, 3.6%
COc1ccc(N/C=C(\C#N)c2nc3ccccc3n2C)c(OC)c1
 : 0.51, i, -2.0%
COc1ccc(C2CC(=O)c3c(C)nc(N4CCN(Cc5ccccc5)CC4)nc3C2)cc1OC (stereo unspecified)
 : 1.1, i, -17%
CCC(C)C(NC(=O)c1ccccc1NC(=O)c1ccc(OC)cc1)C(=O)NCc1ccco1 (stereo unspecified)
 : -0.47, i, 3.4%
C/C(=N\NC(=O)CSCc1ccccc1Cl)c1cccc(NC(=O)c2ccccc2)c1
 : ., i, 0.6%
CCn1nc(C)c(/C=C2\CCCC3=C2OC(N)=C(C#N)C3c2c(C)nn(CC)c2C)c1C (stereo unspecified)
 : -1.3, i, -5.7%
C=C(C)Cn1c(-c2ccccc2)nc2ccccc21
 : -0.54, i, 5.2%
COCCSc1nc2sc3c(c2c(=O)n1-c1ccccc1)CCN(C)C3
 : ., i, -0.3%
Cc1nc2ccccn2c1-c1nnco1
 : -0.06, i, -4.6%
COc1ccccc1N1CCN(C(=O)CSc2nc(C)c(Cc3ccccc3)c(=O)[nH]2)CC1
 : 0.3, i, 6.9%
O=C(NCc1ccccc1)c1cc(-c2cccs2)on1
 : 1.1, i, 3.6%
CON(C)c1nc(OCCNC(=O)OCc2ccc(Cl)cc2C)nc(N(C)C)n1
 : ., i, 2.7%
c1ccc(-c2cc(-c3nnc4sc(-c5ccccn5)nn34)[nH]n2)cc1
 : -1.4, i, -11%
CCOC(=O)c1cc2n(n1)C(C(F)(F)C(F)(F)F)CC(C)N2 (stereo unspecified)
 : -0.95, i, -2.0%
N=c1nc(N)nc2n1NC(c1ccc(F)cc1)=CS2
 : 0.89, i, -2.5%
CC1(C)C(=O)C2(C(=O)NCc3ccccc3)CCC1C2 (stereo unspecified)
 : -0.13, i, -2.4%
N#Cc1c(Nc2ccccc2)c(C=NCCN2CCOCC2)c[nH]c1=O
 : 1.5, i, 5.2%
CCCCCSc1nc2c(c(=O)[nH]c(=O)n2C)n1CC
 : -0.32, i, -1.3%
CN1CCN(CP(=O)(N2CCOCC2)N2CCOCC2)CC1
 : 1.2, i, -3.6%
O=C(NCc1ccc2c(c1)OCO2)C1CCN(c2ncccn2)CC1
 : 0.02, i, -1.6%
O=C(NCC(=O)N(CC1CCCO1)C(C(=O)NC1CCCC1)c1ccc(F)cc1)c1ccco1 (stereo unspecified)
 : 0.17, i, 4.0%
Cc1ccc(CNC(=O)C2CCCN(S(=O)(=O)c3cccnc3)C2)cc1 (stereo unspecified)
 : -0.13, i, -0.7%
CCOC(=O)c1c(C)c(C(=O)NCc2ccccn2)c(C)n1C
 : -0.25, i, 2.2%
